# Screening data: PubChem, Broad Institute
# DUX4 txn inh = inhibitors of DUX4-driven ZSCAN4 reporter expression, primary screen, 293T cells, Gaussia and Italica luciferase. AID 1224904, 2016. actives 0.8% (n = 37,000). 293T-iDUX4 ZSCAN4-Gaussia luciferase reporter, 24 h; hits give low values. activity change, negative = inhibition, % (test concentration not listed);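 active = -10% or lower and over 25 points stronger than a control reporter; inconclusive = -10% or lower with a smaller gap; inactive = above -10%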;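 note: 0% = median of neutral control wells and -100% = median of positive control wells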
# DUX4 txn inh difference = recorded beside DUX4 txn inh, whose call it bears; Gaussia minus Italica difference, %; measured here: selective DUX4 reporter inhibition;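 worked out from the two reporters; negative = selective loss of the DUX4 reporter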
# DUX4 txn inh control = recorded beside DUX4 txn inh, whose call it bears; activity change, negative = inhibition, %; measured here: Italica tet-on control reporter;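 0 = neutral control and -100 = positive control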
# * = called active by the depositor; ? = inconclusive; . = not tested or not shown; & = joins results of further samples; ! = a repeat was not active. These rows are one share of the data. The share of hits here may be higher or lower than overall.
Compound	DUX4 txn inh	DUX4 txn inh difference	DUX4 txn inh control
O=C(c1ccncc1)N1C[C@@H]2N[C@H](C1)C2c1ccc(/C=C/c2ccccc2)cc1 (some centres not stated)	1.8&-7.7	-1.9&-10.8	3.7&3.1
C/C=C/c1ccc2c(c1)[C@@H]1[C@@H](CCN1S(=O)(=O)c1cccc(F)c1)[C@H](CO)N2	-6.9	-11.5	4.6
O=C(Nc1ccc(F)cc1)N1C[C@@H]2[C@H](c3ccccc31)[C@H](CO)N2C(=O)c1ccccc1	1.4	1.0	0.4
CCC(=O)N1CCCCN2[C@@H](CO)[C@@H](c3ccc(/C=C/c4ccccc4)cc3)[C@@H]2C1	?	.	.
CCCN1[C@H](C(=O)NCC)[C@@H](CO)[C@@H]2Cn3c(ccc(-c4ccc(OC)cc4)c3=O)[C@@H]21	-1.6	-1.5	-0.1
COCC#Cc1cnc2c(c1)C(=O)N([C@H](C)CO)C[C@@H](C)[C@H](CN(C)C(=O)c1ccc3c(c1)OCO3)O2	-1.1	-2.0	1.0
COc1ccc2c3c([nH]c2c1)[C@H](CO)N(CC1CC1)CC31CN(S(=O)(=O)c2cccc(F)c2)C1	?	.	.
C[C@@H]1CN([C@@H](C)CO)C(=O)c2cc(NC(=O)Cc3ccccc3)ccc2O[C@@H](C)CCCCO[C@@H]1CN(C)C(=O)CCC(F)(F)F	-0.8	-1.6	0.8
CCC(=O)N1CC[C@@H]2[C@H]1c1cc(-c3ccc(C#N)cc3)ccc1N(C)[C@H]2CO	0.5	0.2	0.3
C[C@@H]1CCCCO[C@H](CN(C)C(=O)c2ccncc2)[C@@H](C)CN([C@H](C)CO)C(=O)c2cc(NS(=O)(=O)c3cn(C)cn3)ccc2O1	1.5	-4.0	5.5
CNC[C@H]1OCCCC[C@@H](C)Oc2ccc(NS(=O)(=O)c3ccc(F)cc3)cc2C(=O)N([C@@H](C)CO)C[C@H]1C	-3.6	-4.1	0.5
Cc1noc(C)c1C(=O)N(C)C[C@@H]1OCc2ccccc2-c2ccccc2C(=O)N([C@@H](C)CO)C[C@@H]1C	-3.5	1.8	-5.3
COc1ccc(CN2C[C@H](C)[C@@H](OC)CN(C)C(=O)c3cc(NC(=O)c4nc5ccccc5s4)ccc3OC[C@@H]2C)cc1	?	.	.
CO[C@@H]1CN(C)C(=O)c2cc(NS(=O)(=O)c3ccccc3)ccc2OC[C@H](C)N(Cc2cccnc2)C[C@H]1C	-0.1	-4.2	4.2
COc1ccc(CN(C)C[C@H]2OCCCC[C@H](C)Oc3ccc(NC(=O)C4CCCCC4)cc3C(=O)N([C@@H](C)CO)C[C@H]2C)cc1	2.2	5.7	-3.5
Cc1cccc(S(=O)(=O)N[C@H]2CC[C@H](CCNS(=O)(=O)c3ccccc3F)O[C@@H]2CO)c1	-9.0	-1.9	-7.0
COCC(=O)Nc1ccc2c(c1)C(=O)N(C)C[C@@H](OC)[C@@H](C)CN(CCc1ccccc1)[C@H](C)CO2	?	.	.
O=C(C[C@@H]1C[C@@H]2c3cc(NC(=O)c4ccc5c(c4)OCO5)ccc3O[C@@H]2[C@H](CO)O1)NCCN1CCCCC1	4.5	0.3	4.1
CCCC(=O)Nc1ccc2c(c1)C(=O)N(C)C[C@H](OC)[C@@H](C)CN(CCC(F)(F)F)[C@@H](C)CO2	0.0	-2.1	2.1
COc1ccc2c3c(n(C)c2c1)[C@H](CO)N(Cc1ccncc1)CC31CCN(C(=O)C2CC2)CC1	0.9	-14.2	15.1
CC1C=NC(S(=O)(=O)N2CC[C@H]3[C@@H](CO)N(C)c4ccc(C#Cc5cccnc5)cc4[C@H]32)=N1 (some centres not stated)	-0.7	-0.7	0.0
C[C@@H]1CN([C@@H](C)CO)C(=O)c2cc(-c3cccc(F)c3)cnc2O[C@H]1CN(C)C(=O)c1cnccn1	5.6	3.7	1.9
COc1ccc2c3c(n(C)c2c1)[C@H](CO)N(Cc1ccccn1)CC31CN(Cc2ccccn2)C1	-0.2	-0.6	0.4
CN1C(=O)c2cc(NC(=O)c3ccccc3F)ccc2OC[C@H]2O[C@@H](CC(=O)NCc3ccc4c(c3)OCO4)CC[C@H]21	-1.4	-5.8	4.4
O=C(CC(F)(F)F)N1C[C@@H]2[C@H](c3ccccc31)[C@H](CO)N2CC1CCOCC1	0.8	3.0	-2.3

# In the list so far, 3 contain a CF3 group:
Compound	DUX4 txn inh	DUX4 txn inh difference	DUX4 txn inh control
C[C@@H]1CN([C@@H](C)CO)C(=O)c2cc(NC(=O)Cc3ccccc3)ccc2O[C@@H](C)CCCCO[C@@H]1CN(C)C(=O)CCC(F)(F)F	-0.8	-1.6	0.8
CCCC(=O)Nc1ccc2c(c1)C(=O)N(C)C[C@H](OC)[C@@H](C)CN(CCC(F)(F)F)[C@@H](C)CO2	0.0	-2.1	2.1
O=C(CC(F)(F)F)N1C[C@@H]2[C@H](c3ccccc31)[C@H](CO)N2CC1CCOCC1	0.8	3.0	-2.3

# (listing goes on)
Compound	DUX4 txn inh	DUX4 txn inh difference	DUX4 txn inh control
Cc1noc(C)c1NC(=O)N(C)C[C@@H]1OCCCC[C@H](C)Oc2ccc(NS(=O)(=O)c3cn(C)cn3)cc2C(=O)N([C@H](C)CO)C[C@@H]1C	-3.6	0.2	-3.9
COc1cc(CN2CC3(CCN(C)CC3)c3c([nH]c4cc(OC)ccc34)[C@@H]2CO)cc(OC)c1	?	.	.
N#C[C@@H]1[C@H](c2ccc(-c3cncnc3)cc2)[C@H](CO)N1C(=O)Cc1ccccc1	-2.8	-3.7	0.9
O=C([C@@H]1[C@@H](CO)[C@@H]2Cn3c(ccc(-c4ccccc4)c3=O)[C@H]1N2CCC(F)(F)F)N1CCOCC1	-0.4	0.7	-1.1
OC[C@@H]1[C@@H](c2ccccc2)C2(CN(Cc3nccs3)C2)N1CC1CCOCC1	-0.9	-13.5	12.6
COc1ccc2c3c(n(C)c2c1)[C@@H](CO)NCC31CN(S(=O)(=O)c2cccc(C)c2)C1	?	.	.
CCNC(=O)Nc1ccc2c(c1)C(=O)N(C)[C@H]1CC[C@H](CC(=O)NCc3ccccc3F)O[C@@H]1CO2	-0.5	2.2	-2.7
CN1c2ccc(-c3ccc(F)cc3)cc2[C@@H]2[C@@H](CCN2C(=O)c2cccnc2)[C@H]1CO	-4.1	-6.9	2.8
C/C=C/c1ccc([C@@H]2[C@@H](CO)N(Cc3nccs3)C23CN(CC2CCCC2)C3)cc1	0.8	-4.8	5.6
CCC(=O)N1C[C@H]2[C@@H](c3ccccc31)[C@H](CO)N2Cc1cc(F)ccc1F	1.0	2.0	-1.1
COc1ccc(NC(=O)Nc2ccc3c(c2)[C@H]2C[C@H](CC(=O)NCc4ccccn4)O[C@@H](CO)[C@H]2O3)cc1	5.2	1.6	3.7
O=S(=O)(Cc1ccccc1)N1CCCCN2[C@H](CO)[C@@H](c3ccc(-c4cccnc4)cc3)[C@H]2C1	13.2	4.0	9.2
O=C(C[C@H]1CC[C@H]2[C@@H](COC[C@H](O)CN2S(=O)(=O)c2ccccc2)O1)NCC1CCCCC1	3.6	-0.5	4.0
CC(=O)N1CCCCN2[C@@H](CO)[C@H](c3ccc(-c4ccc(F)cc4)cc3)[C@@H]2C1	5.6	-14.0	19.6
CO[C@@H]1CN(C)C(=O)c2cc(NC(=O)Nc3ccc4c(c3)OCO4)ccc2OC[C@@H](C)N(C(C)=O)C[C@H]1C	-3.2	-8.8	5.6
CN(C)C(=O)c1ccc(-c2ccc3c(c2)[C@H]2[C@H](CCN2C(=O)c2ccc(F)cc2)[C@@H](CO)N3C)cc1	?	.	.
C[C@H](NC(=O)[C@H]1N[C@H]2c3ccc(C4=CCCC4)c(=O)n3C[C@H]2[C@@H]1CO)c1ccccc1	0.1	-3.9	4.0
CCS(=O)(=O)N1CCC2(CC1)CN(C(=O)NC(C)C)[C@@H](CO)c1c2c2ccc(OC)cc2n1C	7.4	2.1	5.4
Cc1ccccc1-c1ccc(C2[C@@H]3CN(S(=O)(=O)c4ccccc4)C[C@H]2N3)cc1 (some centres not stated)	-49.9*!	-51.0*!	1.1*!
CO[C@@H]1CN(C)C(=O)c2cc(NC(=O)C3CCCC3)ccc2OC[C@H](C)N(C(=O)CC2CC2)C[C@@H]1C	8.7&-3.1	9.4&-1.9	-0.7&-1.2
COc1cccc(NC(=O)N2C[C@H](O)COC[C@@H]3O[C@H](CC(=O)NCCCN4CCOCC4)CC[C@H]32)c1	4.5	1.1	3.5
C[C@@H]1CN([C@H](C)CO)S(=O)(=O)c2ccc(C3=CCCCC3)cc2O[C@@H]1CN(C)Cc1ccccc1F	2.1	-0.2	2.3
COc1ccc2c3c([nH]c2c1)[C@H](CO)N(C(=O)c1ccccn1)CC31CN(C(=O)C2CCC2)C1	13.9	1.8	12.1
C[C@@H]1CN([C@H](C)CO)C(=O)c2cc(C#Cc3cccnc3)cnc2O[C@@H]1CN(C)S(C)(=O)=O	-0.8	-0.9	0.0
CCCC#Cc1ccc([C@H]2[C@@H](CO)N3C(=O)CN(C(=O)c4ccccn4)C[C@H]23)cc1	5.5	2.3	3.1

# Part of the list above in order of count of non-hydrogen atoms, lowest first.
Compound	DUX4 txn inh	DUX4 txn inh difference	DUX4 txn inh control
OC[C@@H]1[C@@H](c2ccccc2)C2(CN(Cc3nccs3)C2)N1CC1CCOCC1	-0.9	-13.5	12.6
CCCC#Cc1ccc([C@H]2[C@@H](CO)N3C(=O)CN(C(=O)c4ccccn4)C[C@H]23)cc1	5.5	2.3	3.1
Cc1cccc(S(=O)(=O)N[C@H]2CC[C@H](CCNS(=O)(=O)c3ccccc3F)O[C@@H]2CO)c1	-9.0	-1.9	-7.0
COc1ccc(CN(C)C[C@H]2OCCCC[C@H](C)Oc3ccc(NC(=O)C4CCCCC4)cc3C(=O)N([C@@H](C)CO)C[C@H]2C)cc1	2.2	5.7	-3.5

# Later entries:
Molecule	DUX4 txn inh	DUX4 txn inh difference	DUX4 txn inh control
COC(=O)N(C)C[C@H]1OCc2cnnn2CCCC(=O)N([C@H](C)CO)C[C@H]1C	5.6	7.6	-2.0
COc1cccc(CN(C)C[C@H]2OCc3ccccc3-c3c(n(C)c4ccccc34)C(=O)N([C@H](C)CO)C[C@@H]2C)c1	-1.1	-6.5	5.4
O=C(C[C@@H]1C[C@H]2c3cc(NC(=O)CC4CC4)ccc3O[C@H]2[C@@H](CO)O1)NCC1CC1	0.9	-0.7	1.6
C[C@@H]1CN([C@@H](C)CO)C(=O)c2cc(C#CC3(O)CCCC3)cnc2O[C@@H]1CN(C)S(=O)(=O)c1cccc(F)c1	-1.3	-2.2	0.8
C[C@@H](NC(=O)C[C@@H]1CC[C@H]2[C@@H](COc3ccc(NS(=O)(=O)c4ccc(Cl)cc4)cc3C(=O)N2C)O1)c1ccccc1	-6.2	-6.7	0.6
Cc1noc(C)c1NC(=O)N(C)C[C@H]1OCc2cnnn2CCCC(=O)N([C@@H](C)CO)C[C@@H]1C	-1.5	1.3	-2.7
C/C=C/c1ccc2c(c1)[C@H]1[C@H](CCN1C(=O)c1cccc(F)c1)[C@H](CO)N2	-9.5	-11.1	1.7
O=C(C[C@H]1CC[C@@H]2[C@H](COC[C@H](O)CN2C(=O)Cc2ccccc2)O1)NC1CCCC1	6.7	7.8	-1.1
O=C(c1cccnc1)N1CCCCN2[C@H](C1)[C@H](c1ccc(C#Cc3ccccn3)cc1)[C@@H]2CO	31.8	14.7	17.1
O=C(C1CC1)N1CCCCN2[C@H](CO)[C@H](c3ccc(-c4cccc(F)c4)cc3)[C@H]2C1	-0.2	-11.3	11.1
O=C(CC1CC1)N1CC(=O)N2[C@@H](CO)[C@H](c3ccc(C#Cc4ccc(F)cc4)cc3)[C@@H]2C1	-0.8	11.9	-12.7
N#C[C@H]1[C@H](c2ccccc2)[C@H](CO)N1C(=O)CCN1CCCCC1	2.3	-0.5	2.8
CCC(=O)N1C[C@H](O)COC[C@H]2O[C@H](CC(=O)NC)CC[C@@H]21	0.0	4.5	-4.6
COc1ccc(NC(=O)N(C)C[C@@H]2OCc3cnnn3CCCC(=O)N([C@H](C)CO)C[C@H]2C)c(OC)c1	1.8	2.8	-1.0
CCCNC(=O)N1C[C@@H]2[C@H](c3ccccc31)[C@H](CO)N2C(=O)Nc1ccccc1F	-0.4	3.6	-4.0
CN1C(=O)c2cc(NC(=O)c3cccc(F)c3)ccc2OC[C@@H]2O[C@H](CC(=O)NCC3CCCCC3)CC[C@H]21	-0.8&2.0	0.4&-2.1	-1.2&4.1
O=C(Nc1ccccc1F)N1[C@@H]2CNC[C@H]1C2c1ccc(-c2ccncc2)cc1 (some centres not stated)	11.7&19.2	17.9&3.1	-6.1&16.0
O=C(C[C@H]1CC[C@@H]2[C@H](COC[C@H](O)CN2C(=O)Nc2ccc(Cl)c(Cl)c2)O1)NCc1ccc(F)cc1	-4.9	0.1	-5.0
CN(C)CCCNC(=O)[C@@H]1[C@@H](CO)[C@@H]2Cn3c(ccc(C4=CCCC4)c3=O)[C@@H]2N1CCC(F)(F)F	7.7	6.7	1.0
CC=Cc1ccc2n(c1=O)C[C@@H]1[C@@H](CO)[C@H](C(=O)N(C)C)[C@H]2N1CC1CCCC1 (mixture of isomers)	-3.0	-9.4	6.4
C[C@@H]1CCCCO[C@H](CN(C)C(=O)CCCN(C)C)[C@H](C)CN([C@@H](C)CO)C(=O)c2cc(NC(=O)Nc3cccc4ccccc34)ccc2O1	0.9	-0.9	1.8
C[C@H]1CN([C@@H](C)CO)C(=O)CCCn2cc(nn2)CO[C@@H]1CN(C)S(=O)(=O)c1ccc(Oc2ccccc2)nc1	-1.1	3.5	-4.6
